Screening results (PubChem)
UUG fidelity: yeast start codon fidelity modulation | AID 602363 | 0.13% of 350,000 active | activity score, % at 18.7 µM | S. cerevisiae UUG-firefly luciferase reporter, luminescence/redox ratio;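 active = replicate mean at a twofold rise or more, about +100% in these data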;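 note: firefly luciferase made from a UUG start codon reports start codon fidelity; reporter light over untreated wells divided by growth signal over untreated wells; some hits fall short of that in this replicate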
Env fusion inh: inhibitors of HIV Env-mediated cell fusion | HeLa-JRFL Env/CEM21 cell fusion, luciferase | inhibition, % at 12.3 µM | 1.1% of 360,000 active | AID 651610;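 active = mean replicate inhibition score of at least 50 and every replicate individually at or above 50; inconclusive = only one of the two criteria met; inactive = mean below 50 and not all replicates reaching 50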;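 note: 0% = plate neutral controls and 100% = maraviroc near 300 nM; one replicate is shown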
* = called active by the depositor; ? = inconclusive; [ ] = remark or other dose. An excerpt; count on the stated rates, not on these rows.

UUG fidelity	Env fusion inh	SMILES
10	-6[16.7 µM]	C[C@@H]1CN([C@@H](C)CO)C(=O)Cc2cc(NC(=O)Cn3cnnn3)ccc2O[C@H]1CN(C)C(=O)Nc1ccccc1
13	-2[16.7 µM]	O=C(N[C@@H]1CC[C@@H](CCNC(=O)C2CCCC2)O[C@@H]1CO)c1ccccn1
2	-2[16.7 µM]	CC(=O)N(C)C[C@@H]1Oc2ncc(/C=C/c3ccccc3)cc2C(=O)N([C@H](C)CO)C[C@H]1C
0	-29[16.7 µM]	C[C@@H]1CN([C@@H](C)CO)C(=O)Cc2cc(NS(C)(=O)=O)ccc2O[C@H]1CN(C)Cc1ccc(C(=O)O)cc1
-4	-1[16.7 µM]	CCCC(=O)Nc1ccc2c(c1)OC[C@H](C)N(C(C)=O)C[C@H](C)[C@H](OC)CN(C)C2=O
-1	8[16.7 µM]	C[C@@H]1CN([C@@H](C)CO)C(=O)c2cc(-c3cccnc3)cnc2O[C@H]1CN(C)C(=O)Cc1cccnc1
-12	9[16.7 µM]	Cc1ccc(S(=O)(=O)N(C)C[C@@H]2OCCCC[C@@H](C)Oc3ccc(NC(=O)CCCN(C)C)cc3C(=O)N([C@@H](C)CO)C[C@H]2C)cc1
-7	-10[16.7 µM]	C[C@@H]1CN([C@@H](C)CO)C(=O)c2cccc(NS(=O)(=O)c3ccc(Cl)cc3)c2O[C@@H]1CN(C)S(=O)(=O)c1ccc(Cl)cc1

New compounds follow:
UUG fidelity	Env fusion inh	SMILES
141*	22[16.7 µM]	C[C@H](CO)N1C[C@H](C)[C@@H](CN(C)Cc2cccnc2)Oc2ncc(C#CC3CCCCC3)cc2C1=O
13	-19[16.7 µM]	C[C@@H]1CN([C@@H](C)CO)C(=O)c2cc(NC(=O)NC3CCCCC3)ccc2O[C@@H](C)CCCCO[C@@H]1CN(C)C(=O)NC1CCCCC1
2	-172[16.7 µM]	C[C@@H]1CN([C@@H](C)CO)S(=O)(=O)c2ccc(-c3cccc(C(=O)N(C)C)c3)cc2O[C@@H]1CN(C)C(=O)Nc1ccccc1
-15	-29[16.7 µM]	CC(=O)N(C)C[C@@H]1Oc2ncc(C#Cc3ccccn3)cc2C(=O)N([C@@H](C)CO)C[C@@H]1C
-12	1[16.7 µM]	C[C@@H]1CN([C@H](C)CO)C(=O)c2cc(-c3ccncc3)cnc2O[C@H]1CN(C)C(=O)C1CCCCC1
1	5[16.7 µM]	COc1ccccc1-c1ccc([C@@H]2[C@@H](C#N)N(C(=O)c3cccnc3)[C@@H]2CO)cc1
7	16[16.7 µM]	C[C@H]1CN([C@@H](C)CO)C(=O)c2cc(C#CC3(O)CCCC3)cnc2O[C@@H]1CN(C)C(=O)Nc1ccc2c(c1)OCO2
-7	4[16.7 µM]	C[C@@H]1CN([C@@H](C)CO)C(=O)c2cc(NC(=O)Nc3ccc4c(c3)OCO4)ccc2O[C@@H](C)CCCCO[C@H]1CN(C)C(=O)Nc1cccc2ccccc12

(cont.)
UUG fidelity	Env fusion inh	SMILES
20	-5[16.7 µM]	O=C(C[C@@H]1CC[C@H](NC(=O)Nc2cccc(F)c2)[C@@H](CO)O1)NCC1CC1
4	13[16.7 µM]	CCCC#Cc1ccc2c(c1)O[C@H](CN(C)C(=O)C1CCC1)[C@@H](C)CN([C@H](C)CO)S2(=O)=O
0	28[16.7 µM]	C[C@H](CO)N1C[C@H](C)[C@H](CN(C)Cc2ccc(Cl)c(Cl)c2)Oc2c(NS(=O)(=O)c3cn(C)cn3)cccc2C1=O
13	-9[16.7 µM]	C[C@H]1CN([C@@H](C)CO)S(=O)(=O)c2ccc(C#CCN(C)C)cc2O[C@@H]1CN(C)Cc1ccc(F)cc1
-5	-13[16.7 µM]	CCC(=O)N[C@@H]1CC[C@@H](CC(=O)OC)O[C@H]1CO
-8	-1[16.7 µM]	C[C@H]1CN([C@@H](C)CO)C(=O)Cc2cc(NC(=O)C3CCCCC3)ccc2O[C@H]1CN(C)Cc1ccc(C(=O)O)cc1
-6	-16[16.7 µM]	O=C(NCC[C@H]1CC[C@@H](NC(=O)c2cccnc2)[C@@H](CO)O1)Nc1ccc(Cl)cc1
-13	13[16.7 µM]	CCC(=O)N(C)C[C@@H]1Oc2cc(-c3cccnc3)ccc2S(=O)(=O)N([C@H](C)CO)C[C@@H]1C

(cont.)
UUG fidelity	Env fusion inh	SMILES
5	-8[16.7 µM]	C[C@H](CO)N1C[C@H](C)[C@@H](CN(C)Cc2cccc(F)c2)Oc2ncc(Br)cc2C1=O
12	34[16.7 µM]	C[C@@H]1CN([C@@H](C)CO)C(=O)Cc2cc(NC(=O)C3CCCCC3)ccc2O[C@H]1CN(C)Cc1ccc(Oc2ccccc2)cc1
2	-37[16.7 µM]	C[C@@H]1CCCCO[C@H](CN(C)Cc2ccc3c(c2)OCO3)[C@@H](C)CN([C@@H](C)CO)C(=O)c2cc(NC(=O)c3ccncc3)ccc2O1
20	-5[16.7 µM]	C[C@@H]1CN([C@@H](C)CO)S(=O)(=O)c2ccc(C#Cc3ccccn3)cc2O[C@H]1CN(C)C(=O)C1CC1
34	-77[16.7 µM]	C[C@@H]1CCCCO[C@H](CN(C)Cc2ccccc2)[C@@H](C)CN([C@@H](C)CO)C(=O)c2cc(NC(=O)Nc3ccc(F)cc3)ccc2O1
-5	7[16.7 µM]	C[C@H]1CN([C@@H](C)CO)C(=O)c2cccc(NS(C)(=O)=O)c2O[C@H]1CN(C)CC1CCCCC1
8	-23[16.7 µM]	C[C@H]1CN([C@@H](C)CO)C(=O)c2cc(-c3ccc(F)cc3)cnc2O[C@@H]1CN(C)C(=O)CN(C)C
-1	1[16.7 µM]	O=C(C[C@@H]1CC[C@@H](NS(=O)(=O)c2ccc(F)cc2)[C@H](CO)O1)NCCc1ccncc1

Further compounds follow:
UUG fidelity	Env fusion inh	SMILES
-11	18[16.7 µM]	C[C@@H]1CCCCO[C@@H](CN(C)C(=O)Nc2ccc(F)cc2)[C@H](C)CN([C@@H](C)CO)C(=O)c2cc(NC(=O)Nc3cccc4ccccc34)ccc2O1
-20	8[16.7 µM]	C[C@@H]1CN([C@H](C)CO)C(=O)c2cc(C#Cc3ccc(F)cc3)cnc2O[C@H]1CN(C)S(C)(=O)=O
-1	-13[16.7 µM]	Cc1ccc(S(=O)(=O)N(C)C[C@@H]2OCCCC[C@H](C)Oc3ccc(NC(=O)c4ccccc4)cc3C(=O)N([C@@H](C)CO)C[C@H]2C)cc1
17	9[16.7 µM]	C[C@@H]1CCCCO[C@@H](CN(C)C)[C@@H](C)CN([C@H](C)CO)C(=O)c2cc(NC(=O)Nc3ccc(F)cc3)ccc2O1
21	-35[16.7 µM]	C[C@@H]1CN([C@H](C)CO)S(=O)(=O)c2ccc(C#C[C@@H](C)O)cc2O[C@H]1CN(C)C(=O)Nc1ccccc1
4	15[16.7 µM]	O=C(C[C@@H]1CC[C@H]2[C@@H](COC[C@@H](O)CN2C(=O)Nc2cccc(Cl)c2)O1)NCCCN1CCOCC1
-17	15[16.7 µM]	C[C@H]1CCCCO[C@H](CN(C)C(=O)Nc2ccc3c(c2)OCO3)[C@@H](C)CN([C@@H](C)CO)C(=O)c2cc(NC(=O)Nc3ccc(C(F)(F)F)cc3)ccc2O1
-18	?	C[C@@H]1CCCCO[C@@H](CN(C)C(=O)Nc2ccc(C(F)(F)F)cc2)[C@H](C)CN([C@H](C)CO)C(=O)c2cc(NC(=O)Nc3ccc(F)cc3)ccc2O1

The list goes on.
UUG fidelity	Env fusion inh	SMILES
-11	-25[16.7 µM]	COc1ccc(-c2ccc([C@@H]3[C@@H](C#N)N[C@@H]3CO)cc2)cc1
14	6[16.7 µM]	C[C@@H]1CN([C@@H](C)CO)C(=O)c2cccc(N(C)C)c2O[C@H]1CN(C)Cc1ccc(C(=O)Nc2ccccc2N)cc1
-3	-6[16.7 µM]	O=C(C[C@@H]1CC[C@H](NC(=O)CCN2CCCCC2)[C@H](CO)O1)Nc1ccc(-c2ccccc2)cc1
10	-12[16.7 µM]	C[C@H](CO)N1C[C@H](C)[C@H](CN(C)C(=O)Nc2ccc3c(c2)OCO3)Oc2ccc(NC(=O)C3CC3)cc2C1=O
4	3[16.7 µM]	O=S(=O)(N[C@H]1CC[C@@H](CCn2cc(-c3cccc(F)c3)nn2)O[C@H]1CO)c1ccccc1
-2	-34[16.7 µM]	COc1ccc(NC(=O)N(C)C[C@@H]2OCCCC[C@H](C)Oc3ccc(NC(=O)Nc4ccccc4)cc3C(=O)N([C@H](C)CO)C[C@@H]2C)cc1
-6	3[16.7 µM]	COc1ccc(S(=O)(=O)Nc2cccc3c2O[C@H](CN(C)C(=O)Nc2ccccc2)[C@H](C)CN([C@H](C)CO)C3=O)cc1
8	14[16.7 µM]	C[C@H]1CN([C@@H](C)CO)C(=O)c2cc(-c3ccccc3F)cnc2O[C@H]1CN(C)C(=O)c1ccccn1

The list goes on:
UUG fidelity	Env fusion inh	SMILES
-8	-2[16.7 µM]	Cc1noc(C)c1NC(=O)Nc1ccc2c(c1)C(=O)N([C@@H](C)CO)C[C@H](C)[C@H](CN(C)Cc1ccc(C(=O)O)cc1)OCCCC[C@H](C)O2
15	-11[16.7 µM]	Cc1noc(C)c1NC(=O)Nc1ccc2c(c1)C(=O)N([C@@H](C)CO)C[C@@H](C)[C@@H](CN(C)S(=O)(=O)c1ccc(F)cc1)O2
1	-1[16.7 µM]	COc1ccc(NC(=O)N(C)C[C@H]2OCCCC[C@@H](C)Oc3ccc(NC(=O)Nc4ccc(C(F)(F)F)cc4)cc3C(=O)N([C@H](C)CO)C[C@@H]2C)cc1
-6	15[16.7 µM]	C[C@H]1CN([C@@H](C)CO)S(=O)(=O)c2ccc(Br)cc2O[C@@H]1CN(C)Cc1ccccn1
-4	-5[16.7 µM]	Cn1cnc(S(=O)(=O)N[C@H]2C=C[C@@H](CC(=O)NCC3CCCCC3)O[C@@H]2CO)c1
21	-18[16.7 µM]	C[C@H]1CN([C@@H](C)CO)C(=O)c2cc(NC(=O)Cc3ccccc3)ccc2O[C@@H]1CN(C)S(=O)(=O)c1ccc(Cl)cc1
-21	-43[16.7 µM]	C=CCNC(=O)[C@@H]1[C@H]2C(=O)O[C@H](c3ccccc3)[C@H](c3ccccc3)N2[C@H](c2ccccc2OCCO)[C@@]12C(=O)N(C(=O)OCCOC)c1ccc(C#CC3(O)CCCCCC3)cc12
-11	-10[16.7 µM]	C[C@@H]1CN([C@@H](C)CO)S(=O)(=O)c2ccc(-c3ccc(F)cc3)cc2O[C@@H]1CN(C)C

Given with two lines to a compound: part of the list above
Second line of a record: UUG fidelity, Env fusion inh
- C[C@H](CO)N1C[C@H](C)[C@H](CN(C)C(=O)Nc2ccc3c(c2)OCO3)Oc2ccc(NC(=O)C3CC3)cc2C1=O
 : 10, -12[16.7 µM]
- O=S(=O)(N[C@H]1CC[C@@H](CCn2cc(-c3cccc(F)c3)nn2)O[C@H]1CO)c1ccccc1
 : 4, 3[16.7 µM]
- COc1ccc(NC(=O)N(C)C[C@@H]2OCCCC[C@H](C)Oc3ccc(NC(=O)Nc4ccccc4)cc3C(=O)N([C@H](C)CO)C[C@@H]2C)cc1
 : -2, -34[16.7 µM]
- COc1ccc(S(=O)(=O)Nc2cccc3c2O[C@H](CN(C)C(=O)Nc2ccccc2)[C@H](C)CN([C@H](C)CO)C3=O)cc1
 : -6, 3[16.7 µM]
- C[C@H]1CN([C@@H](C)CO)C(=O)c2cc(-c3ccccc3F)cnc2O[C@H]1CN(C)C(=O)c1ccccn1
 : 8, 14[16.7 µM]
- Cc1noc(C)c1NC(=O)Nc1ccc2c(c1)C(=O)N([C@@H](C)CO)C[C@H](C)[C@H](CN(C)Cc1ccc(C(=O)O)cc1)OCCCC[C@H](C)O2
 : -8, -2[16.7 µM]
- Cc1noc(C)c1NC(=O)Nc1ccc2c(c1)C(=O)N([C@@H](C)CO)C[C@@H](C)[C@@H](CN(C)S(=O)(=O)c1ccc(F)cc1)O2
 : 15, -11[16.7 µM]
- COc1ccc(NC(=O)N(C)C[C@H]2OCCCC[C@@H](C)Oc3ccc(NC(=O)Nc4ccc(C(F)(F)F)cc4)cc3C(=O)N([C@H](C)CO)C[C@@H]2C)cc1
 : 1, -1[16.7 µM]
- C[C@H]1CN([C@@H](C)CO)S(=O)(=O)c2ccc(Br)cc2O[C@@H]1CN(C)Cc1ccccn1
 : -6, 15[16.7 µM]
- Cn1cnc(S(=O)(=O)N[C@H]2C=C[C@@H](CC(=O)NCC3CCCCC3)O[C@@H]2CO)c1
 : -4, -5[16.7 µM]

Other compounds follow:
UUG fidelity	Env fusion inh	SMILES
3	-5[16.7 µM]	C[C@H]1CCCCO[C@H](CN(C)C(=O)c2ccncc2)[C@@H](C)CN([C@@H](C)CO)C(=O)c2cc(NS(=O)(=O)c3cn(C)cn3)ccc2O1
4	10[16.7 µM]	C[C@H](CO)N1C[C@H](C)[C@@H](CN(C)C(=O)C2CCCCC2)Oc2cc(C#CC3CC3)ccc2S1(=O)=O
-6	-8[16.7 µM]	CC(C)C(=O)Nc1ccc2c(c1)C(=O)N(C)[C@@H]1CC[C@@H](CC(=O)NCCCN(C)C)O[C@H]1CO2
3	-17[16.7 µM]	O=C(Cc1ccccn1)NCC[C@H]1CC[C@@H](NC(=O)Nc2ccc(C(F)(F)F)cc2)[C@@H](CO)O1
4	8[16.7 µM]	O=C(NCC[C@H]1CC[C@H](NC(=O)C2CCC2)[C@H](CO)O1)c1cc(Cl)cc(Cl)c1
-1	-9[16.7 µM]	CC12N=C3SCc4ccccc4CN3[C@H](c3ccccc3O1)[C@H]2CO
4	9[16.7 µM]	C[C@H]1CCCCO[C@@H](CN(C)C)[C@@H](C)CN([C@@H](C)CO)C(=O)c2cc(NC(=O)Nc3ccc(C(F)(F)F)cc3)ccc2O1
17	15[16.7 µM]	CC(C)NC(=O)N(C)C[C@@H]1Oc2ccc(NC(=O)Nc3ccc(C(F)(F)F)cc3)cc2C(=O)N([C@@H](C)CO)C[C@H]1C
11	-17[16.7 µM]	C[C@H](CO)N1C[C@H](C)[C@@H](CN(C)Cc2ccc3c(c2)OCO3)OCCCC[C@H](C)Oc2ccc(NC(=O)NC3CCCCC3)cc2C1=O
